ugtP null kill: growth inhibition of ugtP-null S. aureus, primary screen, RN4220 ugtP deletion, OD600; 16 h; some inactives read as strong as hits; growth inhibition, % (test concentration not listed); actives 0.54% (n = 330,000); AID 1259309, 2017;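 active means z-score under -3 and OD600 up to 0.15 on both plates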;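 further: plate controls were untreated wells for no effect and antibiotic for full effect; wells of about 80 µL received 100 nL stock; the first replicate is given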
Sa RN4220 lethal: growth inhibition of S. aureus RN4220, primary screen, OD600; 16 h; inhibition, % (concentration not given with the values); actives 0.33% (n = 330,000); AID 1259311, 2017;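 active means z-score of -3 or lower and OD600 up to 0.18 on both plates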;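 further: plate controls were untreated cells for no effect and reference antibiotic for full effect; stock transfer was 100 nL into about 80 µL; one replicate is shown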
Autofluor counter: flagged as autofluorescent in microsphere protease counterscreen; AID 624483; actives 3.1% (n = 360,000); fluorescence intensity (no concentration beside the values); compound autofluorescence counterscreen, microsphere flow cytometry; hits give high values;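 active means at least 3 SD above the mean of all compounds, about 16000 in these data; inconclusive means too few beads counted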;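 further: 100 nL of 1 mM stock went into each well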
BJeLR lethal: MLPCN primary cell-based screen for lethality selective to Ras in HRASV12 cells | BJeLR (HRASV12) viability, CellTiter-Glo ATP luminescence, 48 h; reference of the scale not given here | inhibition, % (test concentration not listed) | actives 0.17% (n = 300,000) | AID 1554, 2009;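 active means replicate mean above 50%; inconclusive means above 50% but judged a plate artefact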;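 further: 50 nL library stock added to about 25 µL; numbers are from one replicate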
Mtb hypoxia rep: PubChem AID 1159583 | M. tuberculosis hypoxia-regulated fluorescent reporter, fluorescence | fluorescence inhibition, % (test concentration not listed) | actives 0.1% (n = 300,000);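 active means 35 to 45% if threefold the growth effect, above 45% if 1.5-fold the growth effect; inactive means the rest, general growth blockers included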;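 further: wells of about 50 µL received 100 nL stock; 0% = vehicle wells and 100% = reference inhibitor wells; whole bacteria with a GFP reporter of the hypoxia response; strong numbers were not always called active; many hits fall short of the cut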
PrP 5UTR inh: inhibition of PrP 5' UTR reporter expression | cell-based PrP 5' UTR mRNA reporter, plate reader | inhibition, % (concentration not given with the values) | actives 0.35% (n = 340,000) | AID 488862, 2010;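 active means every replicate at 50% or more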;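 further: 0 = median of the neutral control wells; tested in H4 reporter cells; numbers are from one replicate; inactives centre near -14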
Mtb hypoxia rep growth: also measured in Mtb hypoxia rep; calls as there; growth inhibition, %; measured here: M. tuberculosis growth (absorbance);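 0% = vehicle and 100% = reference antibiotic; read after six days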
* = called active by the depositor; ? = inconclusive; · = not tested or not shown; & = joins results of further samples.

SMILES	ugtP null kill	Sa RN4220 lethal	Autofluor counter	BJeLR lethal	Mtb hypoxia rep	Mtb hypoxia rep growth	PrP 5UTR inh
O=C(c1cccs1)N(c1ccc(Cl)cc1)C1C=CS(=O)(=O)C1 (configuration not stated)	10	4.4	3431	-5	3	4	-20
CC(C)CCN(C(=O)CNC(=O)c1ccco1)C(C(=O)NC1CCCCC1)c1cccnc1 (configuration not stated)	7	3.0	5182	9	0	3	8
C#CCOCCOCCOCCNc1nc(N2CCN(C(=O)C(CCC(=O)O)n3cc(C(N)CO)nn3)CC2)nc(N2CCN(C(=O)C(CCCCN)n3cc(C(N)CC(C)C)nn3)CC2)n1 (configuration not stated)	-3	-0.8	·	·	-1	-8	·
Cc1ccccc1CN1CCNC(=O)C1CC(=O)NCCC1=CCCCC1 (configuration not stated)	0	3.8	6666	-5	10	11	-10
Cc1cc(-c2ccccc2)nc(N2CCN(c3ccccn3)CC2)n1	-9	7.9	6262	-2	17	4	-18
COc1ccc(Cl)cc1NC(=O)CN(C)C(=O)CSc1ccc2c(c1)OCCO2	6	5.0	4268	·	-6	4	-20
C#CCOC(=O)CN1C(=O)c2cccc3cccc(c23)C1=O	0	0.6	·	7	6	-4	-17
CCOC(=O)c1sc2nc3c(cc2c1N)COC(C)(C)C3	2	0.7	4607	·	·	·	-120
CCn1cc(C(=O)NC(=S)Nc2cccc(O)c2)cn1	15	0.0	2655	-7	·	·	-11
Cc1nc2ccc(NC(=O)c3ccc([N+](=O)[O-])cc3)cc2[nH]1	6	1.9	3764	7	4	-4	-14
Cc1ccccc1N1CC(C(=O)N2CC(C)CC(C)C2)CC1=O (configuration not stated)	0	0.8	?	-2	-4	4	8
CN1/C(=C\C(=O)C(F)F)C(C)(C)c2ccccc21	·	·	3215	-11	·	·	-24
O=C(NCCCN1CCCCC1)C1CCC(CNS(=O)(=O)c2cccc3nsnc23)CC1 (configuration not stated)	1	0.7	5008	1	-1	7	-4
CC(=O)[C@@H]1[C@@H](C(=O)c2ccc(F)cc2)[C@]2(C(=O)Nc3ccccc32)[C@H]2C=Cc3cc(F)ccc3N12	3	-0.5	3764	6	7	3	4
O=C(COC(=O)c1cc([N+](=O)[O-])ccc1NCCO)NCc1cccs1	0	3.2	4541	-2	14	10	-26
COc1ccc(NC(=O)C2CCCN2c2nn3c(=O)cc(C)nc3s2)cc1 (configuration not stated)	-2	1.9	6108	7	-5	4	1
COc1ccc(S(=O)(=O)N2CCN(c3ccc(C)cc3C)CC2)cc1OC	8	4.3	4498	-1	·	·	-38
O=C(N/N=C/c1cccc([N+](=O)[O-])c1)c1ccc2c(c1)OCCO2	·	·	7065	-2	·	·	-84
CCCCSc1nnc2nc(C)cc(C)n12	0	1.0	?	11	-3	2	-11
COc1cc(C(=O)N=c2sccn2C)c([N+](=O)[O-])cc1OC	2	3.4	5587	-5	3	-2	-3
CSc1nnc(NC(=O)c2ccco2)s1	12	1.7	3974	-3	12	-2	-27
COc1ccc(CC(=O)Oc2cc(C)[nH]c(=O)c2[N+](=O)[O-])cc1	3	4.9	2526	·	1	-1	-3
COC(=O)c1sc(S(=O)(=O)Nc2ccc(C)c(C)c2)c(C(=O)OC)c1C	13	12	2100	0	10	4	7
COc1cc(OC)cc(C(=O)Nc2nc(CC(=O)NCCc3ccccc3)cs2)c1	17	3.1	5628	-1	3	10	-12
CC1(OC(=O)CCc2ccccc2)C(=O)C=C2C=C(c3ccc(C#N)cc3)N(CCc3c[nH]c4ccccc34)C=C2C1=O (configuration not stated)	2	2.9	3389	-11	3	7	-20

Additional entries.
SMILES	ugtP null kill	Sa RN4220 lethal	Autofluor counter	BJeLR lethal	Mtb hypoxia rep	Mtb hypoxia rep growth	PrP 5UTR inh
CCOC(=O)N1CCN(C(=O)c2ccc3c(c2)NC(=O)C(N2CCOCC2)S3)CC1 (configuration not stated)	-5	-15	·	·	1	1	7
Cc1ccc(S(=O)(=O)N2CC(O)CC2C(=O)OCC(=O)Nc2ccc([N+](=O)[O-])cc2C(F)(F)F)cc1C (configuration not stated)	3	2.7	3360	·	10	14	-2
Cn1c(N)c(C(=O)CCl)c(=O)n(Cc2ccccc2)c1=O	4	-6.4	3653	7	19	15	-9
Cc1cc(C)c(S(=O)(=O)N2CCCC(C(=O)N3CCCC3)C2)c(C)c1 (configuration not stated)	6	-1.0	6070	-3	5	5	-7
C=C(C)c1cccc(C(C)(C)NC(=O)N2CCC(C)CC2)c1	2	-7.6	2097	1	·	·	-15
CCN1CCN(Cc2ccc(NC(=O)c3cc(NC(=O)C(=O)c4c[nH]c5ccccc45)cc(OC)c3)cc2C(F)(F)F)CC1	22	58	3281&4233	12	-2	26	26
C=C(C)c1nc(N)nc(N)n1	5	-0.7	2444	9	·	·	-12
Cc1nc(Cl)c2c(n1)NC(=O)CO2	0	2.6	6521	4	3	9	·
COc1ccc(N=C(C)c2c(O)[nH]c(=O)[nH]c2=O)cc1	8	2.2	3727	2	7	4	-15
O=S(=O)(NC(=NC1CCCCC1)c1ccccc1)c1ccccc1	8	0.0	5580	-1	5	7	-5
COc1ccccc1C=NNC(=O)c1cccc(NC(=O)c2ccccc2Cl)c1	5	4.6	·	·	15	6	·
Cc1ccc(CNC(=O)C2c3ccccc3C(=O)N3CCc4ccccc4C23)o1 (configuration not stated)	7	4.4	8168	13	4	3	-16
CCOC(=O)c1oc2c(CN3CCCCC3C)c(O)ccc2c(=O)c1-c1ccc(OC)c(OC)c1 (configuration not stated)	9	3.6	4713	15	5	1	-5
O=C(COc1ncnc2ccc(Br)cc12)Nc1ccc(N2CCOCC2)cc1	7	2.5	3698	1	14	9	-11
O=C(O)C(CCCCNS(=O)(=O)c1ccc(F)cc1)NS(=O)(=O)c1ccc(F)cc1 (configuration not stated)	5&6	0.0&2.1	3381&5341	-1&-2	-2&-5	4&-10	21&-8
COc1ccc(-n2c(C)ccc2C)c([N+](=O)[O-])c1	7	4.4	3694	7	10	0	6
Cc1cccc(C(=O)NCCN(C)C)c1	-9	0.5	2855	-8	-1	-4	-9
c1ccc(CCNCc2cccs2)cc1	5	2.0	4017	8	1	4	-32
O=C(NCc1ccc(F)cc1)C(c1ccncc1)N(C(=O)c1csnn1)C1CC1 (configuration not stated)	7	-0.6	3359	-1	-4	-3	-24
O=C(CCC(=O)N1CCOc2ccccc21)NCCCN1CCN(Cc2ccccc2)CC1	-4	-12	6075	-5	5	4	-13
COc1ccc(NC(=O)CS(=O)(=O)c2ccc(F)cc2)cc1	3	0.6	3887	-4	9	10	-48
O=C(NCc1ccncc1)C(=O)NCC1OCCN1S(=O)(=O)c1ccc(F)cc1 (configuration not stated)	11	4.8	5306	6	10	7	-6
COc1ccc(-c2nnn(CC(=O)NCCc3c[nH]c4ccccc34)n2)cc1OC	-1	0.2	21211*	-16	5	7	-20
NC(=O)c1ccccc1N(Cc1ccccc1)S(=O)(=O)c1ccccc1	-7	2.2	2527	5	-20	-4	-15
Cc1cccc[n+]1CC(=O)Nc1ccc([N+](=O)[O-])cc1Cl	8	1.9	3001	-2	0	-2	-12

(continued)
SMILES	ugtP null kill	Sa RN4220 lethal	Autofluor counter	BJeLR lethal	Mtb hypoxia rep	Mtb hypoxia rep growth	PrP 5UTR inh
NS(=O)(=O)c1cc(C(=O)Nc2ccc3c(c2)OCCCO3)ccc1Cl	18	5.1	5850	-9	6	3	-19
COc1ccc(S(=O)(=O)n2nc(-c3ccc(Cl)cc3)cc2N)cc1OC	·	·	4605	-2	·	·	56*
CC(=O)n1cc(C2C=C(C(=O)Nc3ccccc3)OC(OCCCCO)C2)c2ccccc21 (configuration not stated)	9&-9	6.6&2.9	·	·	-1&4	-2&6	·
Cc1cc(C)n2nc(C(=O)OCC(=O)c3ccc(F)cc3)nc2n1	2	0.8	5974	-6	-3	8	-31
O=C(CCCCC(=O)NNC(=O)COc1ccccc1)NNC(=O)COc1ccccc1	·	·	4518	-5	·	·	-19
CCc1ccc(-c2cc(C(=O)N3N=C(C(F)F)CC3(O)C(F)F)c3ccccc3n2)cc1 (configuration not stated)	75	46	12278	-3	14	-3	-42
CN(CCOc1ccc(CC2SC(=O)NC2=O)cc1)c1ccccn1 (configuration not stated)	-11&-7	4.1&10	5978&5609	18&8	1&-2	9&4	-21&-9
Cc1ccc2nc(N3CCN(Cc4nnnn4C4CCCC4)CC3)c(C#N)cc2c1	-2	6.0	4430	-1	5	1	-34
COc1ccccc1-c1noc(CCCC(=O)N2CCOCC2)n1	1	-1.0	·	4	4	-4	·
CCOC(=O)c1cc2nc(-c3ccccc3)cc(C)n2n1	-2	-3.1	3818	5	-3	-4	-10
COc1ccc(C=Cc2ccccc2)cc1C1C2C=CCC[C@@]2(C)C(=O)N1Cc1ccccc1 (some centres not stated)	3	-3.5	·	·	13	12	·
Cc1ccc(S(=O)(=O)c2nc(-c3ccco3)oc2SC(C)C)cc1	12	2.9	3675	5	-2	-10	-7
COc1ccc(NC(=O)C/C(C)=N/NC(=O)C2CCCCC2)c([N+](=O)[O-])c1	·	·	5074	-7	·	·	-19
COC(=S)N/C(=N\S(=O)(=O)c1ccc(Cl)cc1)c1ccccc1	·	·	6050	-1	·	·	-7
CCOC(=O)C(=CNc1ccc2c(c1)nnn2-c1ccc(Cl)cc1)C(=O)OCC	4	11	8948	-1	3	5	-14
CCc1ccc(N2CC(C(=O)OCC(=O)c3c(N)n(CC(C)C)c(=O)n(C)c3=O)CC2=O)cc1 (configuration not stated)	4	4.2	5933	4	3	9	-82
CCN(CC(=O)NCc1cccnc1)S(=O)(=O)c1ccc(OC)cc1	10	0.3	5354	2	-1	5	-12
CCN1C(=O)[C@H]2[C@@H](c3ccc(Cl)cc3)N3C(=O)CN(CC4CC4)C(=O)[C@@]3(Cc3ccccc3)[C@H]2C1=O	·	·	4007	-2	·	·	-4
Cc1cc(C(=O)COC(=O)CCc2nc3ccccc3c(=O)[nH]2)c(C)n1CC1CCCO1 (configuration not stated)	7	1.8	·	5	3	13	·
Cc1cccc(NC(=O)CSc2ncnc3nc[nH]c23)c1C	11	4.7	5166	1	9	6	-14
Cc1[nH]c(C)c(S(=O)(=O)Nc2ccccc2Cl)c1C(=O)N1CCCC1	16	7.2	4456	-1	-10	-12	-16
CN(C)c1ccc(N=Cc2nc(-c3ccccc3)oc2O)cc1	6	9.0	3171	11	·	·	20
Cc1cc(C(=O)Nc2ccc3nc(C)sc3c2)c2ccccc2n1	10	0.7	2982	-9	1	0	-11
O=C(CSc1ccc(-c2ccc(Cl)cc2)nn1)NC1CCCC1	-3	-3.0	5642	9	-6	-3	-3
CCCc1nc(NCCO)c(C#N)c2c1CCCC2	-4	6.2	4630	3	10	3	·

Next section (6 carried over from the part before).
SMILES	ugtP null kill	Sa RN4220 lethal	Autofluor counter	BJeLR lethal	Mtb hypoxia rep	Mtb hypoxia rep growth	PrP 5UTR inh
Cc1cccc(NC(=O)CSc2ncnc3nc[nH]c23)c1C	11	4.7	5166	1	9	6	-14
Cc1[nH]c(C)c(S(=O)(=O)Nc2ccccc2Cl)c1C(=O)N1CCCC1	16	7.2	4456	-1	-10	-12	-16
CN(C)c1ccc(N=Cc2nc(-c3ccccc3)oc2O)cc1	6	9.0	3171	11	·	·	20
Cc1cc(C(=O)Nc2ccc3nc(C)sc3c2)c2ccccc2n1	10	0.7	2982	-9	1	0	-11
O=C(CSc1ccc(-c2ccc(Cl)cc2)nn1)NC1CCCC1	-3	-3.0	5642	9	-6	-3	-3
CCCc1nc(NCCO)c(C#N)c2c1CCCC2	-4	6.2	4630	3	10	3	·
NNC(=O)CN1C(=O)Nc2ccc(Br)cc2C1c1ccccc1 (configuration not stated)	2	-0.3	11362	8	9	-1	-16
Cc1ccc(-c2n[nH]c(=S)c3ccccc23)cc1	11	1.4	4185	-3	-5	12	-21
CC(C)c1nnc(NC(=O)CC23CC4CC(CC(C4)C2)C3)s1	5	-4.7	4566	24	3	3	-8
CCC1C(c2ccccc2)N(C)C(c2ccccc2)CC1(O)c1ccccc1 (configuration not stated)	-29	-12	3058	-4	9	-1	5
COC(=O)[C@@H](C)NC(=O)c1ccc2oc(CCc3ccccc3)nc2c1	2	-2.8	3442	5	10	12	-43
CC(NC(=O)C12CC3CC(CC(C3)C1)C2)c1ccc(F)cc1 (configuration not stated)	-4	-4.5	3284	-3	6	1	-7
Cn1ccnc1C(=O)c1cccc(Br)c1	8	2.8	5618	-11	14	12	-26

Screening data: PubChem BioAssay, several laboratories
